SARS PLpro yeast: qHTS of Yeast-based Assay for SARS-CoV PLP; 0.19% of 330,000 active; Potency, µM (top dose mostly 32.9 µM), for inactives: top-dose activity, positive = growth rescue; S. cerevisiae expressing SARS-CoV PLpro, growth rescue; control for the full effect not named in the record; active means well fitted rising curve with a large enough effect; inconclusive means small, poorly fitted or top-dose-only effect; inactive means no such curve, though single readings can be large or run the other way; note: 0% is about no effect; nearly all actives have a fitted effect of over 55% in size; growth read by luminescence after 48 h
MARV entry inh: qHTS for inhibitors of binding or entry into cells for Marburg Virus. Marburg virus pseudotyped entry inhibition, cell reporter; control for the full effect not named in the record; about a third of the inactives were read at about 46 µM. 1.8% of 300,000 active. Potency, µM (highest dose often 37.8 µM), inactives show at the top dose activity change, negative = inhibition, most hits filed as inhibitors; active = well fitted inhibition curve with a large enough effect; inconclusive = small, poorly fitted or top-dose-only effect, or effect the other way; inactive = flat fitted curve, though single readings scatter; tested in HEK293 cells; about a fifth of its hits are not listed in these tables; note: % is set by controls: 0 for no effect and ±100 for the full control effect; luciferase read-out
Cruzain inh noDet: qHTS Assay for Promiscuous and Specific Inhibitors of Cruzain (without detergent) | 2.3% of 200,000 active | purified cruzain, Z-FR-AMC fluorescence, no detergent | Potency, µM, inactives show max response, negative = inhibition, most hits filed as inhibitors | AID 1476, 2009 | Cruzipain (Trypanosoma cruzi), P25779;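 note: plate controls were enzyme without inhibitor for no effect and buffer without enzyme for full effect; nearly all actives have a fitted effect of over 40% in size; top concentration of the series not given in the record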
Target sequence (P25779 123-467 limits assumed): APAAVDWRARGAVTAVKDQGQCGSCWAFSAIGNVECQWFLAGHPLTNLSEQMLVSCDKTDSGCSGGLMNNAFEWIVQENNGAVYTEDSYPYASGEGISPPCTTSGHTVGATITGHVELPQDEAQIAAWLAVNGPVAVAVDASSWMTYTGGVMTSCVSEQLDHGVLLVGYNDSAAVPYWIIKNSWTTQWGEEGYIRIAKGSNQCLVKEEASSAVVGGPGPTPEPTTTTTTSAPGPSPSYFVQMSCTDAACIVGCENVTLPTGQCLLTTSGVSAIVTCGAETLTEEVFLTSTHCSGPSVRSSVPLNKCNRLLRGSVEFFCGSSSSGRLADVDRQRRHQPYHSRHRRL
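Detergent-free condition (0.00005% Triton X-100) in acetate buffer pH 5.5 with DTT. 1.5 nM enzyme and compound were pre-mixed 15 min, then 2 uM Z-FR-AMC substrate added; reaction progress from fluorescence change between first and third reads (60 s).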
Cruzain inh Det: qHTS Assay for Promiscuous and Specific Inhibitors of Cruzain (with detergent); Cruzipain (Trypanosoma cruzi), P25779; purified cruzain, Z-FR-AMC fluorescence, 0.01% Triton; Potency, µM, for the others: max response, negative = inhibition, most hits filed as inhibitors; 0.43% of 200,000 active;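 note: plate controls were neutral wells for no effect and buffer without enzyme for full effect; nearly all actives have a fitted effect of over 40% in size; top concentration of the series not given in the record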
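Compounds were screened in titration against cruzain (1.5 nM) with 0.01% Triton X-100 to counter colloidal aggregation. Activity was the AMC fluorescence increase over 60 s after adding 2 uM Z-FR-AMC at pH 5.5.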
NS1 function inh: qHTS Assay for Inhibitors of Influenza NS1 Protein Function. Potency, µM (series often up to 46.1 µM), for inactives: at the top dose activity, positive = more growth. 0.4% of 270,000 active. S. cerevisiae slowed by influenza A NS1, growth recovery by OD600; active means well fitted rising curve with a large enough effect; inconclusive means small, poorly fitted or top-dose-only effect; inactive means no such curve, though single readings can be large or run the other way; note: nearly all actives have a fitted effect of over 50% in size
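S. cerevisiae expressing influenza A NS1, grown in glucose, washed, then diluted 1:100 into pH 6.0 -URA galactose medium with 23 nl compound. Growth recovery read as OD600; NS1-free strain serves as control.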
Lassa entry inh: qHTS for Inhibitors of binding or entry into cells for Lassa Virus | Lassa virus pseudotype entry inhibition, cell reporter; control for the full effect not named in the record | Potency, µM (doses to about 37.9 µM), inactives show top-dose activity change, negative = inhibition, most hits filed as inhibitors | 1.2% of 300,000 active | AID 540256, 2011; active means well fitted inhibition curve with a large enough effect; inconclusive means small, poorly fitted or top-dose-only effect, or effect the other way; inactive means flat fitted curve, though single readings scatter; tested in HEK293 cells; note: % is set by controls: 0 for no effect and ±100 for the full control effect; nearly all actives have a fitted effect of over 50% in size; luciferase read-out
RE007 growth inh: qHTS Assay for Inhibitors of the HIV-1 protein Vpr; S. pombe RE007 Vpr strain, BacTiter-Glo ATP luminescence, 24 h; control for the full effect not named in the record; Potency, µM (top dose mostly 92.2 µM), for inactives: at the highest dose activity change, negative = less growth; 0.21% of 360,000 active; active = well fitted falling curve with a large enough effect; inconclusive = small, poorly fitted or top-dose-only effect; inactive = no such curve, though single readings can be large or run the other way;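 note: % is set by controls: 0 for no effect and ±100 for the full control effect; nearly all actives have a fitted effect of over 50% in size; the assay follows cell death caused by Vpr and the record does not say whether a fall means rescue or toxicity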
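Fission yeast strain RE007, carrying one chromosomally integrated HIV-1 vpr copy, was seeded at OD 0.01 in PMG+AL medium with 23 nL pinned compound. After 24 h at 30 °C and 99% humidity, viability was read by BacTiter-Glo luminescence.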
StopGo reporter: High Throughput Screening for Foot and Mouth Disease Virus Antivirals; human cells with a luciferase reporter of 2A StopGo recoding; control for the full effect not named in the record; Potency, µM (series often up to 57.9 µM), for the others: at the top dose signal change, negative = less light; 1.2% of 410,000 active; active = well fitted falling curve with a large enough effect; inconclusive = small, poorly fitted or top-dose-only effect; inactive = no such curve, though single readings can be large or run the other way; tested in HEK293T cells; note: % is set by controls: 0 for no effect and ±100 for the full control effect; nearly all actives have a fitted effect of over 45% in size; luciferase light after 4 h
The depositor's hits bear a star; ? = inconclusive; . = not tested or not shown; & = joins results of further samples; [ ] = another dose, or the depositor's remark. Unless noted, calls come from the whole dose curve; as a rule, active = well fitted curve in the direction sought with a large enough effect; inconclusive = small, poorly fitted or top-dose-only effect, or another doubt; inactive = no such curve, though single readings can be large; an effect the other way counts as inactive or inconclusive. Potency is the fitted concentration of half-maximal effect.

SMILES	SARS PLpro yeast	MARV entry inh	Cruzain inh noDet	Cruzain inh Det	NS1 function inh	Lassa entry inh	RE007 growth inh	StopGo reporter
CC(=O)Nc1ccc(OC(=O)c2cc([N+](=O)[O-])ccc2Cl)cc1	2%	-3%	-1%	1.8%	10%	8%	10%	-16%
CC(C)(C)c1ccccc1OCCOCCN1CCCCCC1	0%	?	.	.	0%	-20%	-17%	-29%
CC(C)(C)OC(=O)N1CCC(c2c(C(=O)N3CCN(c4ccccc4F)CC3)cnn2C(C)(C)C)CC1	.	.	?	-8.0%	.	-29%[46.1 µM]	.	-11%
Cc1cc(=O)oc2cc(NC(=O)C3CC(=O)N(Cc4ccccc4)C3)ccc12 (stereo not drawn)	-4%	8%[46.1 µM]	-4%	-6.9%	3%	-7%	-12%	13%
O=C(CSc1ncccn1)Nc1ccc(N2CCOCC2)cc1	-3%	14%	13%	1.1%	0%	-11%	14%	0%
COc1ccc(C2NC3=C(CCC3)C3(C#N)C4(N=C(N)C23C#N)OCCO4)cc1 (stereo not drawn)	8%	1%	5%	-2.8%	?	1%	-16%	?
CC(Oc1ccc(F)cc1)C(=O)N1CCC(c2nc3ccccc3s2)CC1 (stereo not drawn)	.	-1%[46.1 µM]	?	-12%	.	13%[46.1 µM]	.	?
COc1ccc(-c2cnc(SCC(=O)Nc3cc(C)on3)n2Cc2ccco2)cc1	-4%	-2%&-25%	8%	-3.4%	-68%	-9%	5%	?
COc1cc(NC(=S)NC(C)=O)ccc1NC(=O)C(C)C	4%	21%	-7%	3.5%	-46%	-2%	-4%	57%[activator]
CCC(C(=O)OCc1cc(=O)n2nc(CCOC)sc2n1)c1ccccc1 (stereo not drawn)	.	.	2%	-2.0%	.	7%[46.1 µM]	.	-22%
Cc1ccc(NC(=S)N/N=C2\CC(C)(C)Oc3ccc(O)cc32)cc1	-9%	.	1%	-5.6%	22%	.	4%	-19%
N#Cc1ccccc1CSc1ncccc1C(=O)O	-10%	2%[46.1 µM]	.	.	27%	7%[46.1 µM]	-16%	7%
O=C(O)Cn1c(SC2CCCCC2)nc2ccccc21	10%	20%	-7%	7.8%	1%	15%	0%	9%
CCOC(=O)c1c(C)[nH]c(C)c1S(=O)(=O)N1CCCC(C(=O)NCc2cccc(OC)c2)C1 (stereo not drawn)	.	.	8%	1.5%	.	4%[46.1 µM]	.	24%
COc1ccccc1Nc1ncnc2c1c(C)c(C)n2CCO	-1%	1%[46.1 µM]	.	.	-12%	29%[46.1 µM]	-30%	17%
Cc1cc2occ(CC(=O)N(C)CC(=O)Nc3ccccc3Cl)c2cc1C	-11%	-4%	.	.	.	-4%	6%	-16%
COc1cc([N+](=O)[O-])ccc1NC(=O)/C=C/C(=O)O	0%	10%[46.1 µM]	.	.	.	.	-3%	-3%
Cc1cc(F)ccc1NC(=O)CCS(=O)(=O)c1ccc2c(c1)NC(=O)CO2	.	.	?	-4.7%	.	1%[46.1 µM]	.	?
CCC(C)N1CCN(C(=O)Cc2ccccc2)CC1 (stereo not drawn)	8%	29%	-2%	4.8%	8%	14%	-6%	-18%
CS(=O)(=O)N1CCCC(C(=O)NCCc2ccc(Cl)cc2)C1 (stereo not drawn)	8%	28%	-10%	2.3%	-1%	3%	15%	.
Cc1ccc(C(=O)O)cc1[N+](=O)[O-]	-1%	.	-7%	-1.4%	.	.	4%	-22%
C1CCN(c2nc(N3CCCCC3)nc(N3CCNCC3)n2)CC1	-4%	-1%	6%	3.9%	-2%	-4%	-1%	-25%
COc1c([N+](=O)[O-])cc(C(=O)NNC(=O)c2ccc(C)cc2)cc1[N+](=O)[O-]	0%	-6%[46.1 µM]	.	.	-14%	-6%[46.1 µM]	4%	-23%
COc1ccc(N2C(=O)c3ccccc3NC2c2ccc(OC)c(CSc3ccccn3)c2)cc1 (stereo not drawn)	8%	?	-29%	-9.8%	-7%	-8%	2%	58%[activator]
CC1(C)CC2CC(C)(CN2C(=O)c2cc(-c3ccccc3O)on2)C1 (stereo not drawn)	-13%	.	-12%	-6.0%	-123%	.	3%	5%
SMILES	SARS PLpro yeast	MARV entry inh	Cruzain inh noDet	Cruzain inh Det	NS1 function inh	Lassa entry inh	RE007 growth inh	StopGo reporter
O=C(CS(=O)(=O)c1ccccc1)Nc1ccccn1	1%	4%	.	.	0%	-1%	2%	12%
COc1cc2c(=O)n(Cc3ccccc3Cl)c(=O)n(CC(=O)Nc3ccc(C)c(C)c3)c2cc1OC	.	-3%[46.1 µM]	-3%	-1.3%	.	-14%[46.1 µM]	.	-2%
CCOC(=O)CN1C(=O)C2(C(C#N)=C(N)Oc3ccccc32)C(C(=O)OC)=C1C (stereo not drawn)	.	24%	5%	0.7%	3%	-17%	-13%	-9%
CN(CC(=O)Nc1ccc2c(c1)OCCO2)S(=O)(=O)c1cccc2cccnc12	2%	8%	-7%	3.8%	-13%	.	3%	-9%
O=C(c1ccccc1OCc1ccc(Cl)cc1)N1CCN(c2ccccn2)CC1	-5%	?	.	.	.	-5%	-8%	?
COC(=O)CSc1n[nH]c(-c2ccncc2)n1	-6%	?	2%	17%	-6%	15%	22%	-16%
COC(=O)[C@H](Cc1c[nH]c2ccccc12)NC(=O)CCCc1c[nH]c2ccccc12	-2%	.	.	.	-4%	.	-2%	?
O=S1(=O)[C@H]2C[C@@H]3C=C[C@@]2(CN1Cc1ccccc1F)O3	-3%	.	.	.	-16%	.	1%	1%
O=C(O)CCC(=O)N1CCN(c2ncccn2)CC1	0%	0%[46.1 µM]	.	.	4%	-8%[46.1 µM]	1%	-7%
Cc1ccc(S(=O)(=O)Nc2nc3ccccc3nc2N2CCN(c3ccccc3F)CC2)cc1	1%	1%[46.1 µM]	?	-3.3%	?	-11%	-1%	-15%
COCCn1c(COc2ccc(OC)cc2)nc2ccccc21	-4%	-16%	-2%	0.5%	-63%	12%	-3%	-8%
O=C(CNC(=O)c1cccc(S(=O)(=O)N2CCc3ccccc32)c1)Nc1ccc(F)c(F)c1F	-3%	?	.	.	.	?	-9%	-4%
CCOc1ccccc1NC(=O)CSc1nnc(CC)c(CC)n1	.	.	-10%	-2.0%	.	?	.	-4%
Cc1nc2ccccc2c(=O)n1/N=C/c1ccc(O)cc1	?	20%	-9%	-2.1%	-65%	-3%	1%	.
O=P(Cc1ccccc1)(Cc1ccccc1)c1ccccc1	.	-11%	.	.	.	18%[46.1 µM]	11%	-17%
COC(=O)c1c(C(=O)OC)c(-c2ccc(OC)cc2)n2c1CS(=O)C2 (stereo not drawn)	1%	.	.	.	4%	.	5%	9%
O=C(O)c1ccc(-c2ccccc2)[nH]1	-6%	4%	0%	6.1%	-8%	-2%	10%	1%
O=C(Nc1cccc(-c2cccc(F)c2)c1)C1CCN(CC2CCOC2)CC1 (stereo not drawn)	14%	?	.	.	4%	8%	3%	-19%
Cc1ccc(N2C(=O)[C@@H]3CSC(c4ccc(F)cc4)N3C2=O)cc1 (stereo partly drawn)	.	9%[46.1 µM]	0%	-7.1%	.	3%[46.1 µM]	.	-23%
Cc1ccc(CNC(=O)CSc2c(C)cnc3c2c(=O)n(C)c(=O)n3C)cc1	.	.	-6%	1.4%	.	4%[46.1 µM]	.	-19%
O=C(CSc1ccc([N+](=O)[O-])cc1)NNC(=O)c1ccccc1F	1%	6%[46.1 µM]	.	.	20%	15%[46.1 µM]	8%	0%
Cc1ccc(Cl)cc1Nc1nc2ccccc2n2c(C)nnc12	.	.	8%	-10%	.	4%[46.1 µM]	.	-15%
CC(=O)c1c(NC(=O)C(C)C)nc(C)nc1-c1ccccc1	-5%	-4%	-2%	1.4%	-1%	1%	5%	-19%
CSc1ccc(NC(=O)NCCCN2CCN(c3ccccc3F)CC2)cc1	3%	?	4%	-3.7%	-5%	-10%	20%	-14%
COc1ccc(S(=O)(=O)NCc2cccnc2)cc1	-4%	.	.	.	-2%	.	-5%	16%
SMILES	SARS PLpro yeast	MARV entry inh	Cruzain inh noDet	Cruzain inh Det	NS1 function inh	Lassa entry inh	RE007 growth inh	StopGo reporter
C(=C\c1ccccc1)/CSc1nnc(-c2ccccn2)n1Cc1ccco1	-12%	?	-8%	-16%	-47%	?	-19%	0%
O=C1C(NS(=O)(=O)c2ccc(Cl)cc2)=C(N2CCCCC2)C(=O)c2ccccc21	-19%	?	-19%	-12%	-10%	0%	-22%	-15%
CC12CN3CCN(CC(C3)C1O)C2 (stereo not drawn)	-7%	1%	11%	2.7%	4%	2%	-21%	-19%
COc1ccc(CCNC(=O)Cn2nnc(-c3ccccc3F)n2)cc1OC	?	12%	12%	4.2%	-2%	-22%	-4%	.
C#CCOC(=O)C(NC(=O)c1ccccc1)=C1CCCCC1	12%	7%	-4%	2.2%	-4%	-1%	10%	-1%
COc1ccc(CNC(=O)CCCn2c(SCC(N)=O)nc3cc4c(cc3c2=O)OCO4)cc1	.	.	-2%	2.7%	.	-15%[46.1 µM]	.	-3%
Cc1ccc(OCc2nc(-c3ccccn3)no2)cc1	-6%	-16%	7%	1.2%	-75%	-5%	-13%	.
Cn1c(SCC(=O)Nc2cccc(F)c2)nnc1-c1cc2ccccc2o1	-6%	11%	2%	4.3%	1%	2%	-1%	18%
CC(=O)N1CCOc2cc(S(=O)(=O)NCc3ccc(C)cc3)c(C)cc21	.	.	-1%	-1.4%	.	?	.	59%[activator]
COc1ccc(CNC(=O)c2cc(COc3c(F)cccc3F)on2)cc1OC	0%	.	.	.	0%	.	5%	-29%
Clc1ncnc2scc(-c3ccc(Br)cc3)c12	10%	?	-17%	-2.9%	-4%	?	-24%	?
CC(=O)Oc1ccc2c(=O)c(/C=N/c3cc(=O)[nH]c(=S)[nH]3)coc2c1	1%	.	.	.	3%	.	-7%	-17%
CC(=O)c1c(-c2ccc(Cl)cc2)c2ccccc2[nH]c1=O	0%	-11%[46.1 µM]	.	.	0%	?	-22%	-15%
